Screening results: PubChem BioAssay, ICCB-Longwood Screening Facility, Harvard Medical School
Sa growth inh = blocks Staphylococcus aureus growth; S. aureus RN4220 growth, OD600, 20 h, 42 °C; active compounds read low; relative growth, % (test concentration not listed); 170,000 tested, 0.53% active;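 active means growth at 42 °C up to 50% and 20 or more points under that at 30 °C, or under 10% at both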;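 further: 300 nL library stock went into each well; scaled to the means of positive and negative controls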
GIV-Gai inh = inhibitors of GIV GBA-motif binding to rat Galpha-i3 | P08753 | Galpha-i3/FITC-GIV peptide fluorescence polarization, 90 min; active compounds read low; scaled: aluminum fluoride 0%, vehicle 100% | percent of control (FP), % (no concentration beside the values) | 210,000 tested, 0.42% active;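 active means replicate mean at 85% of control or lower, very high polarization wells dropped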;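 further: wells of about 15 µL received 100 nL stock; the first replicate is given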
Target sequence (P08753 whole entry, looked up): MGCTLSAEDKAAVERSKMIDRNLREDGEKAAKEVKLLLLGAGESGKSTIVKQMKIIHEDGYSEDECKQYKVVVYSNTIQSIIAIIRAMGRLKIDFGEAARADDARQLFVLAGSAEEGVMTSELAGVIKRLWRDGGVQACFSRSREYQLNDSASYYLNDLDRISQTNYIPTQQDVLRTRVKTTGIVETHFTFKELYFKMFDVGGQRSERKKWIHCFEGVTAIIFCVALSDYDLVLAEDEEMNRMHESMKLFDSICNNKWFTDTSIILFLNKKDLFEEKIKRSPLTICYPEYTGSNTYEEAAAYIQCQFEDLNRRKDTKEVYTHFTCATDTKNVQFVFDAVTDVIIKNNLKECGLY
HCMV NEC inh = disrupts HCMV UL50-UL53 complex binding; HTRF UL50-UL53 interaction, normalized percent inhibition; inhibition, % (test concentration not listed); 190,000 tested, 0.15% active; AID 1918969;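 active means both replicates at 50% or more, plus weaker picks with an unusually low signal ratio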;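 further: stock transfer was 100 nL into about 20 µL; 0% = negative control wells and 100% = wells with untagged competitor protein; inactives centre near -12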
Sa growth inh second temp = second read-out of Sa growth inh, no call of its own (marks repeat the call); relative growth, %; measured here: growth at 30 °C;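 optical density after 20 h as mean of two plates; 100% = untreated growth and lower means inhibition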
The depositor's hits bear a star; / = no result given; & = joins results of further samples. Hits appear at their usual frequency. About 0.83% of those tested had a hit in this group.

SMILES	Sa growth inh	Sa growth inh second temp	GIV-Gai inh	HCMV NEC inh
COc1cccc(C2C(C(=O)Nc3ccccc3)=C(C)N=C3SCC(=O)N32)c1 (stereo unspecified)	100.8	96.2	107.5	8.8
CCOc1ccc(-c2cc(-c3nc4c5c(C)c(C)oc5ncn4n3)[nH]n2)cc1	/	/	99.0	3.7
Fc1ccc(-c2noc3ncnc(N4CCN(c5ccccc5)CC4)c23)cc1	102.4	97.6	103.8	/
CCCN1C(=O)c2c(C(=O)Nc3cc(F)ccc3F)ncn2CC1(C)C(=O)NC1CCCC1 (stereo unspecified)	/	/	104.0	-14.1
Cc1cccc(CNC(=O)C2CCN(S(=O)(=O)c3ccc4c(c3)CCCN4C(=O)C3CCC3)CC2)c1	146.7	93.9	111.0	/
COc1ccccc1CC(=O)NCC(c1ccco1)N1CCCCC1 (stereo unspecified)	103.6	92.4	/	-3.5
CCOc1ccc(-c2c(C)[nH]n3c(=O)c(N4CCCC4)c(C)nc23)cc1OCC	/	/	101.0	-13.8
N#Cc1ccc(S(=O)(=O)N2CCN(c3nc4ccc(Cl)cc4s3)CC2)cc1	96.9	89.0	103.3	-25.1
CCOC(=O)COc1cc2oc(C)c(-c3nc4ccccc4s3)c(=O)c2cc1CC	118.2	95.6	98.5	/
COC(=O)C1=C(C)NC(=O)NC1c1cn(-c2ccccc2)nc1-c1ccc(OC)c(Cl)c1 (stereo unspecified)	74.3	86.8	98.7	/
O=S(=O)(Cc1ccccc1)c1ccccc1	105.7	91.1	100.3	-38.6
CCC(=O)N1CCc2cc(Br)cc(S(=O)(=O)NCc3cccc(OC)c3)c21	103.7	88.1	98.9	-22.7
CCOC(=O)CN1C(=O)c2ccccc2S1(=O)=O	/	/	111.9&97.7	-26.0&2.4
Cn1c(=O)c2c(SCC(=O)NCC3CCCO3)nc(-c3ccccc3F)nc2n(C)c1=O (stereo unspecified)	89.5	90.4	96.9&100.5	/
Cc1csc(SCC(=O)NC(C)c2ccccc2)n1 (stereo unspecified)	102.4	86.7	/	-8.9
CC(C)NC(=O)CCCCn1c(=O)c2ccccc2n(CC(=O)Nc2cccc(Cl)c2)c1=O	/	/	103.9	-7.8
Cc1ccc(-c2cn3c(n2)sc2cc(C(=O)NC(C)C45CC6CC(CC(C6)C4)C5)ccc23)cc1 (stereo unspecified)	105.2	96.8	111.4	/
COC(=O)NC1CCCCC1NC(=O)OC (stereo unspecified)	103.4	101.8	106.7	-1.8
C=CCNC(=S)Nc1sc2c(c1C#N)CCCC2	100.0	87.3	98.5	-22.9
COc1ccc(NC(=O)Nc2ncc(-c3ccccc3)n2C)c(OC)c1	/	/	103.9	-12.2

Some of the entries above in another layout.
structure | Sa growth inh | Sa growth inh second temp | GIV-Gai inh | HCMV NEC inh
COC(=O)C1=C(C)NC(=O)NC1c1cn(-c2ccccc2)nc1-c1ccc(OC)c(Cl)c1 (stereo unspecified) | 74.3 | 86.8 | 98.7 | /
O=S(=O)(Cc1ccccc1)c1ccccc1 | 105.7 | 91.1 | 100.3 | -38.6
CCC(=O)N1CCc2cc(Br)cc(S(=O)(=O)NCc3cccc(OC)c3)c21 | 103.7 | 88.1 | 98.9 | -22.7

The list goes on.
SMILES	Sa growth inh	Sa growth inh second temp	GIV-Gai inh	HCMV NEC inh
NC1=C(C(=O)NC2CC2)C(=NC2CCCCC2)SC1C(=O)Nc1cc(Cl)ccc1Cl (stereo unspecified)	70.7	40.9	/	-18.7
Cc1ccc(NC(=O)Cn2c(=O)nc(-c3ccccc3)c3ccccc32)cc1	91.0	78.1	105.8	/
Cn1cc(C(=O)CSc2nnc(-c3ccoc3)c(-c3ccoc3)n2)c2ccccc21	71.5	44.0	99.6	-29.4
CCn1nc(-n2cnnc2)c(NS(=O)(=O)c2ccc(C3CCCCC3)cc2)c1C	/	/	97.2	-4.7
C=CCn1cnnc1SCC1CCCCC1	100.2	85.9	/	9.2
COc1cccc2c1cc1c(=O)n(CC(=O)N3CCN(c4cccc(Cl)c4)CC3)nc(C)n12	102.5	86.4	99.7	-25.2
CC1=CC(C)(C)N2C(=O)C3(N=C(N)NC(Nc4ccccc4)=N3)c3cc(C)cc1c32 (stereo unspecified)	78.1	100.1	111.7	-30.8
O=C1CSC(/N=C/c2ccccc2O)=NN1	93.8	85.6	/	-9.9
CCCC(=O)Oc1cc2c(C(=O)OCC)c(C)n(-c3ccccc3)c2c2ccccc12	/	/	104.3	-13.1
CCOC(=O)c1c(NC(=O)c2cccc(Cl)c2)sc(C(=O)Nc2ccc(C)c(Cl)c2)c1C	/	/	98.1	-8.1
Cc1cccc(N(CC(=O)NCCSCc2cccc(Cl)c2)S(=O)(=O)c2ccccc2)c1C	90.5	81.9	102.9	-37.3
COc1ccc(Oc2coc3cc(OC(=O)c4ccco4)ccc3c2=O)cc1	100.2	78.8	101.4	-12.9
CN1CCC(N(Cc2ccc3c(c2)OCO3)C(=O)c2cn(Cc3ccccc3)c3ccsc23)CC1	76.0	83.1	107.8	2.5
COc1ccc(CNC(=O)CN(C)S(=O)(=O)c2ccc3nc(C)sc3c2)cc1	96.9	90.7	107.1	-23.1
Brc1ccc(CNc2ccc(-c3nc4ncccc4o3)cc2)cc1	112.5	100.4	110.6	-25.0
CNC(=O)C1CC(=O)N(c2ccc(OC)cc2)C1 (stereo unspecified)	93.9	115.2	107.7	9.0
CNS(=O)(=O)c1ccc(OC)c(-c2nnc3c4ccccc4c(C)nn23)c1	114.2	88.3	108.4	-12.4
Cn1c(=O)c2c(nc(Sc3nc4ccccc4n3CC(=O)N3CCCCC3)n2C)n(C)c1=O	61.8	83.9	106.4	-4.8
CC(C)CCNC(=O)c1ccc2c(SCC(=O)O)c3c(nc2c1)CCC3	89.9	91.0	99.2	/
COC(=O)c1cc(S(=O)(=O)N(C)Cc2ccccc2)cn1C	77.8	83.2	102.9	-32.1
CCCn1ccnc1SCC(=O)NC(=O)NC12CC3CC(CC(C3)C1)C2	95.7	88.1	/	-10.4
CC(C)CCNC(=O)c1ccc(-n2ccc3ccccc32)s1	84.8	77.5	101.2	3.5
Cc1cc(Br)ccc1-c1ccc(CNCCCN(C)C)o1	/	/	104.4	-18.0
CCCCc1ccc(NC(=O)OC)cc1	107.1	93.6	106.2	-5.7
O=C(CSC1=NS(=O)(=O)c2ccccc2N1)Nc1ccccc1	95.4	85.7	105.2	-36.6
CCc1nc2sc(C(c3ccccc3)N3CCCCC3)c(O)n2n1 (stereo unspecified)	116.7	103.7	108.4	13.7
Cc1cc(C)cc(C(=O)NCC(=O)O)c1	107.6	86.9	/	-17.5
CCOC(=O)/C(=N\Nc1ccc(Br)cc1)N1CC(C)OC(C)C1 (stereo unspecified)	80.6	85.0	/	-12.1
CC1CCCN(C(=O)CCc2nc(-c3cc4ccccc4[nH]c3=O)no2)C1 (stereo unspecified)	/	/	102.7	-19.2
Cc1cc2c(cc1C)NC(=O)c1ccccc1C(c1ccccc1)=N2	111.1	97.3	105.5	-2.9

Four consecutive records out of the list so far, for reference:
SMILES	Sa growth inh	Sa growth inh second temp	GIV-Gai inh	HCMV NEC inh
CCCn1ccnc1SCC(=O)NC(=O)NC12CC3CC(CC(C3)C1)C2	95.7	88.1	/	-10.4
CC(C)CCNC(=O)c1ccc(-n2ccc3ccccc32)s1	84.8	77.5	101.2	3.5
Cc1cc(Br)ccc1-c1ccc(CNCCCN(C)C)o1	/	/	104.4	-18.0
CCCCc1ccc(NC(=O)OC)cc1	107.1	93.6	106.2	-5.7

Next section.
SMILES	Sa growth inh	Sa growth inh second temp	GIV-Gai inh	HCMV NEC inh
COc1cccc(C(=O)Nc2ccc(S(=O)(=O)Nc3nccc(C)n3)cc2)c1	95.4	73.0	97.6	/
O=S(=O)(NCCc1csc2nc(-c3ccc(F)cc3)nn12)c1ccc(Br)cc1	121.6	82.0	101.2	/
O=C(NC1CCCCC1)NC1C2CC3CC(C2)CC1C3 (stereo unspecified)	99.2	105.2	98.0	-23.2
COC(=O)c1ccccc1-c1ccc(/C=C2\C(=O)N(C)C(=O)C(C#N)=C2C)o1	102.8	77.4	101.2	/
C/C(=N\O)C(=O)Nc1ccccc1	98.9	93.1	100.0	-10.4
O=S(=O)(NC1CCCCC1SC1=NCCS1)c1ccc(Cl)cc1 (stereo unspecified)	99.5	89.1	96.3	/
c1ccc2c(C3=NNC(=NC4CCCCC4)SC3)c[nH]c2c1	99.0	78.3	/	-49.1
CCOC(=O)c1c(NC(=O)c2ccc(OC)c(OC)c2)sc(C(=O)Nc2ccccc2F)c1C	/	/	99.0	-11.4
Cc1ccc(C(=O)NCC(c2ccc3c(c2)OCO3)N2CCN(c3ccc(F)cc3)CC2)cc1 (stereo unspecified)	107.6	83.4	96.4	/
CCN(CC)CC(=O)c1c[nH]c2ccccc12	95.6	100.0	109.5	-8.5
COc1cccc2sc(NC(=O)c3ccc(S(=O)(=O)N4CCCC(C)C4)cc3)nc12 (stereo unspecified)	102.5	86.3	96.5	/
COc1ccc(C2C(Oc3ccccc3)C(=O)N2c2ccc(C)c(Cl)c2)cc1OC (stereo unspecified)	/	/	107.3	5.0
O=C(Cc1cccs1)Nc1cc(C(=O)O)cc(C(=O)O)c1	109.8	83.9	102.6	/
O=C([C@@H]1CCCN1C(=O)c1cccs1)N1CCN(Cc2ccc3c(c2)OCO3)CC1	85.3	93.7	/	-9.6
CCn1c(CNC(=O)COc2c(C)cccc2C)nnc1SCC(=O)Nc1ccc(OC)cc1	102.1	99.0	111.0	9.9
CCc1ccc(N2C(=O)N(CC(=O)N(CC)CC)C3CS(=O)(=O)CC32)cc1 (stereo unspecified)	91.6	84.2	102.0&98.4	-27.4&-0.4
O=C(NCc1nc(-c2ccccc2)no1)C1CCCCC1	91.9	97.1	99.9	/
S=C(NCc1ccncc1)NCc1ccco1	87.8	87.2	104.4	-21.4
COc1cccc(N2CCN(S(=O)(=O)c3ccc(-c4cc(C(F)(F)F)on4)s3)CC2)c1	93.0	88.1	101.2	/
N#Cc1cnn2c(N)c(-c3ccccc3)cnc12	/	/	93.4	-14.1
COc1ccc(NC(=O)c2ccc3c(c2)OCCO3)cc1	88.8	75.8	105.2	/
NCCCCN1CCCCC1	84.7	89.0	100.9	-22.2
O=C1CCCN1Cc1ncnn1-c1ccccc1	66.8	85.3	106.0	-2.9
O=C(Nc1cc(Cl)ccc1Cl)c1cc(S(=O)(=O)NCCc2ccccc2)ccc1F	120.5	99.1	109.3	/
CC(C)NC(=O)N1CCCC(c2cccc(C(=O)NCCN3CCCCC3C)c2)C1 (stereo unspecified)	/	/	108.7	-24.7
COc1ccc(OC)c(NC(=O)c2sc(=S)n3c2[nH]c(=O)c2cc(Cl)ccc23)c1	/	/	105.0	2.8
O=C(Nc1cccnc1)c1nn(-c2ccccc2)c(=O)c2ccccc12	80.9	88.0	/	-39.2
CC1(C)NCCC12C(=O)N(Cc1ccccc1)c1ccccc12 (stereo unspecified)	111.0	88.5	/	2.0
CCC(C)c1ccc2oc(-c3ccc(NC(=O)c4cc5ccccc5o4)cc3)nc2c1 (stereo unspecified)	92.8	89.8	104.2	-37.8
COc1ccc(NC(=O)CCc2nc3c(C)nn(-c4ccc(C)cc4)c3n(C)c2=O)c(OC)c1	92.8	92.6	105.6&107.3	-38.8
O=C(Nc1ccccc1F)C(Cc1ccccc1)n1cccc1 (stereo unspecified)	103.6	84.8	105.5	-0.3
Cc1c(Cl)cccc1NC(=O)Cn1cc2c(n1)CCCC2	99.3	86.6	100.4	-17.9
COc1ccccc1NC(=O)Nc1n[nH]c(-c2ccccc2)n1	91.2	89.2	/	-9.0
COc1ccc(-n2cc(C(=O)NCc3ccc(Cl)cc3)c3ccccc3c2=O)cc1	110.3	107.3	107.3	/
Cc1ccc(S(=O)(=O)N2CCn3c2nc2ccccc23)cc1	103.5	67.6	100.7	/
Cc1nc2cc(C(F)(F)F)ccc2n1C	70.9	92.2	/	1.2
CCC(=O)c1cc(F)ccc1O	84.1	95.6	/	7.9
O=C(Nc1ccc(OC(F)(F)F)cc1)C1CCCN(S(=O)(=O)c2ccc(Br)s2)C1 (stereo unspecified)	110.2	87.3	105.8	-17.5
Cc1c(CCCN)c2ccccc2n1Cc1ccccc1	98.7	90.1	100.0	9.9
CCN(Cc1ccccc1)C(=O)CN1C(=O)COc2ccc(S(=O)(=O)NC3CCCC3)cc21	115.4	85.3	98.6	/

2 of these compounds, reformatted:
Values in the order – Sa growth inh | Sa growth inh second temp | GIV-Gai inh | HCMV NEC inh
CCC(=O)c1cc(F)ccc1O
→ 84.1 | 95.6 | / | 7.9
O=C(Nc1ccc(OC(F)(F)F)cc1)C1CCCN(S(=O)(=O)c2ccc(Br)s2)C1 (stereo unspecified)
→ 110.2 | 87.3 | 105.8 | -17.5

(listing goes on)
SMILES	Sa growth inh	Sa growth inh second temp	GIV-Gai inh	HCMV NEC inh
CCCS(=O)(=O)c1ncc(Cl)c(C(=O)Nc2sc(C)c(C)c2C(=O)OCC)n1	/	/	106.4	-12.9
C/C(=C/C(=O)O)C(=O)Nc1ccc(C)cc1	95.3	82.0	97.4	-13.4
COc1ccc(/C=C/C(=O)OC2CCCCC2)cc1	76.0	90.5	/	-3.7
COc1ccccc1C(=O)OC1OCCOC1OC(=O)c1ccccc1OC (stereo unspecified)	101.0	107.3	/	2.8
CCCNC(=O)c1ccc2c(c1)nc(C)n2-c1cccc(C)c1	91.9	79.5	100.9	/
